HSD17B inhib – qHTS Assay for Inhibitors of HSD17B4, hydroxysteroid (17-beta) dehydrogenase 4. AID 893, 2007. 3-hydroxyacyl-CoA dehydrogenase type-2 (Homo sapiens), Q99714. Potency, µM (doses to about 57.1 µM), without a hit: at the top dose activity change, negative = inhibition, most hits filed as inhibitors. recombinant HSD17B10, NADH fluorescence kinetic; many of its hits are not listed in these tables. 75,000 tested, 7.6% active; active = well fitted inhibition curve with a large enough effect; inconclusive = small, poorly fitted or top-dose-only effect; inactive = no such curve, though single readings can be large or run the other way;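 also: the protocol describes HADH2 (HSD17B10) and not the HSD17B4 of the title; nearly all actives have a fitted effect of over 70% in size; most hits overshoot -100% by far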
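20 nM HADH2, pH 9.0 Tris/Tween; cpd preinc 15 min RT; start w/ 1 mM NAD+ + 90 uM b-hydroxybutyryl-CoA; kinetic fluor ex360/em450 q30s x 4 min; delta last-first.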
The depositor's hits bear a star; ? = inconclusive; [ ] = dose if it differs, or a comment. % is scaled to controls: 0 for no effect and ±100 for the full control effect; potency is read from the fitted curve at half-maximal effect. Only part of the results is shown. The share of hits here may be higher or lower than overall.

The first 3 records (preview)
compound | HSD17B inhib
O=C(CCn1cccc1)Nc1nccs1 | 1%
COCC(=O)Nc1ccc(S(=O)(=O)NCCc2ccccc2)cc1 | 2%
O=C(CN1CCN(S(=O)(=O)c2ccc(F)cc2)CC1)Nc1ccc(Cl)c(C(F)(F)F)c1 | -3%

The list itself, previewed entries included:
compound | HSD17B inhib
O=C(CCn1cccc1)Nc1nccs1 | 1%
COCC(=O)Nc1ccc(S(=O)(=O)NCCc2ccccc2)cc1 | 2%
O=C(CN1CCN(S(=O)(=O)c2ccc(F)cc2)CC1)Nc1ccc(Cl)c(C(F)(F)F)c1 | -3%
Cn1c(=O)c2c(nc(SCC(=O)NCc3ccc4c(c3)OCO4)n2Cc2ccccc2)n(C)c1=O | 12%
COc1ccc(C(=O)CSc2nnc(C3CCCCC3)n2N)c(OC)c1 | -16%
COC(=O)[C@H](CCSC)NC(=O)N1CCN(Cc2ccccc2)CC1 | -8%
COc1ccc(-n2cnnc2SCCC#N)cc1 | 9%
Cc1cc2cc(CN(Cc3ccco3)C(=O)C3CCCCC3)c(=O)[nH]c2cc1C | 11%
COc1ccc(OC2C=CC(C#Cc3ccccc3)OC2CO)cc1 (stereo unspecified) | -9%[11.4 µM]
CCc1c(C)nc(SCC(=O)c2ccc(C)c(C)c2)[nH]c1=O | -3%
CS(=O)c1nc(-c2ccc(Br)cc2)cc(-c2ccccc2)c1C#N (stereo unspecified) | 31%[activator]
COc1ccc(-c2nc3c(n2O)CCCC3=O)cc1OC | ?
COC(=O)C1C2C=CC3(CN(Cc4cccs4)C(=O)C13)O2 (stereo unspecified) | 0%
CN1C(=O)CSc2ccc(NC(=O)Nc3ccccn3)cc21 | -4%
Nc1nc2nc(SCC(=O)N3CCCc4ccccc43)[nH]c2c(=O)[nH]1 | 2%
CN(CCc1ccccn1)S(=O)(=O)c1ccc(F)cc1 | 14%
O=C1CC(Nc2ccccc2)C(=O)N1c1ccc(N2CCOCC2)cc1 (stereo unspecified) | -6%
CCCCN(C(=O)NC(=O)Nc1nc2ccc(OC)cc2s1)S(C)(=O)=O | 0%
Cc1ccc(CCNC(=O)C2CCN(S(=O)(=O)c3cccc4nsnc34)CC2)cc1 | -1%
Cc1cccc(NC(=O)c2ccccc2O)c1C | ?
CCN(CC)C(=O)Cn1nc(-c2ccccc2O)nc1SCC(=O)Nc1ccc(OC)cc1 | 2%
NC(=O)CSc1nnc(-c2ccc(S(=O)(=O)N3CCCC3)cc2)n1CC1CCCO1 (stereo unspecified) | -17%
CCc1ccc(-n2c(O)cnc2Nc2nc(C)cc(C)n2)cc1 | 1%
CCOC(=O)N1CCN(C(=O)Cc2ccsc2)CC1 | 9%
COc1cc(NC(=O)c2ccccc2)c(OC)cc1NC(=O)CN1CCOCC1 | -2%
O=C(COc1ccc(S(=O)(=O)N2CCCC2)cc1Cl)NC1CC1 | 2%
Cc1cc(=O)n2nc(N3CCC(C(=O)NC4CCCc5ccccc54)CC3)sc2n1 (stereo unspecified) | -1%
CCC(C)NC(=O)C1CC(c2ccc(OC)cc2)=NO1 (stereo unspecified) | 5%
CCOc1ccc(C(C)C)cc1S(=O)(=O)n1nc(C)cc1C | -6%
CCc1cc(=O)oc2cc(C)cc(OCc3nn[nH]n3)c12 | 25µM*

Laid out differently: 2 of the compounds above.
CCCCN(C(=O)NC(=O)Nc1nc2ccc(OC)cc2s1)S(C)(=O)=O
  HSD17B inhib: 0%
Cc1ccc(CCNC(=O)C2CCN(S(=O)(=O)c3cccc4nsnc34)CC2)cc1
  HSD17B inhib: -1%

More results follow:
compound | HSD17B inhib
CN1C(=O)C[C@H](c2ccccc2)C1=O | 3%[25.6 µM]
Cc1cc(=O)n2nc(N3CCCC(C(=O)NCCCN4CCc5ccccc5C4)C3)sc2n1 (stereo unspecified) | 2%
COC(=O)c1cc(OC)c(OC)cc1NC(=O)CSc1nnnn1Cc1ccccc1 | ?
O=C(Nc1ccc(Oc2ncccn2)cc1)c1ccco1 | 10%
CCCCOC(=O)c1ccc(NC(=O)c2ccoc2C)cc1 | -7%
COc1ccccc1NC(=O)N1c2ccc(F)cc2CCC1C (stereo unspecified) | 2%
O=C1C(Cl)=C(N2CCCCC2)C(=O)N1c1ccccc1Cl | -7%
CCc1ccc2[nH]c(=O)c(CN(CCCN3CCOCC3)C(=O)Nc3cccc(Cl)c3)cc2c1 | 1%
Cc1ccc2cc(CN(C)C(=O)C3CCCO3)c(=O)[nH]c2c1 (stereo unspecified) | 6%
CC(C)=CCC/C(C)=C/CO/N=C1/C[C@@H](O)[C@@H](O)[C@@H]2[C@@H]3C(=O)N([C@@H](C)c4ccccc4)C(=O)[C@H]3CC[C@H]12 | -2%[11.4 µM]
O=C(c1ccc(CNS(=O)(=O)c2ccccc2)cc1)N1CCN(c2ccccn2)CC1 | 9%
Cc1ccc(S(=O)(=O)N2CCN(C3CCN(Cc4ccccc4)CC3)CC2)cc1 | 4%
Cc1ccc(Cl)cc1N1CCN(C(=O)c2ccc(NS(=O)(=O)c3c(C)noc3C)cc2)CC1 | 1%
Cc1scc(C(=O)Nn2cnnc2)c1-c1ccccc1 | 4%
Cc1ccc(C(=O)C(C)OC(=O)C2=COCCO2)cc1C (stereo unspecified) | 10%
O=C(CCn1c(=O)[nH]c2ccsc2c1=O)N1CCN(Cc2ccc3c(c2)OCO3)CC1 | 10%
O=C(CCCSc1nc2ccccc2s1)NCc1ccco1 | -12%
COc1ccc(C(C(=O)NC(C)(C)C)N(Cc2ccco2)C(=O)CCC(=O)Nc2cc(C)on2)cc1 (stereo unspecified) | 9%
O=C(Nc1ccc2[nH]c3c(c2c1)CCCC3)c1ccco1 | -21%
Cc1sc2ncnc(SCC(=O)N3CCCC3)c2c1C | -6%
Cn1nc(C(=O)NC2CCCCC2)c2ccccc2c1=O | 6%
CCOc1ccc(N2C(=O)CC(/C=C3/N(C)c4ccccc4C3(C)C)C2=O)cc1 (stereo unspecified) | 29%
CCOc1ccccc1-n1c(SCC(=O)N(CC)CC)nnc1-c1ccccn1 | 4%
Cc1ccc(Oc2ccc(NC(=O)c3ccco3)cc2)cc1 | -8%
Cc1ccc(SCc2cc(=O)[nH]c(N3CCN(Cc4ccccc4)CC3)n2)cc1 | 2%
CCc1ccc(C2CC(c3ccccc3Cl)Nc3nc(N)nn32)cc1 (stereo unspecified) | 0%
CCOC(=O)C(C)n1cnc2c(nnn2Cc2ccc(C)cc2)c1=O (stereo unspecified) | -1%
Cc1ccc(-c2nnc(-c3ccc4ccccc4c3)o2)cc1 | ?
O=C(O)c1ccc(NS(=O)(=O)c2cc(Cl)ccc2Cl)cc1 | 5%
Cc1nn(C)c(C)c1S(=O)(=O)NC1CCCC1 | 5%
CCCn1nnc(NC(=O)C(C)Oc2ccc(Cl)cc2Cl)n1 (stereo unspecified) | 4%
Cc1sc2ncn(CC(=O)OCC(=O)NC(C)(C)C)c(=O)c2c1C | 0%
CCOC(=O)N1CCN(C(=O)CSc2nc3c([nH]c4ccccc43)c(=O)n2C)CC1 | -26%
CC(=O)CC(=O)Nc1ccccc1 | 7%
CCOC(=O)N1CCN(C(=O)CCSc2ccccc2)CC1 | 0%
Cc1nn(C(=O)N2CCCCC2)c(C)c1CN1C(=O)c2ccccc2C1=O | 11%
COc1ccc(-c2coc3c(OC)c(OC)cc(O)c3c2=O)cc1 | -5%
O=C(Cn1nc(-c2ccc(Cl)cc2)ccc1=O)N1CCN(c2ccccc2)CC1 | ?
Cc1cc(=O)[nH]c(SCCOc2ccc3c(c2)CCC3)n1 | 12%
CNC1CC(N)[C@H](O)[C@@H](O[C@@H]2OC(CO)C3OC4(OC(C(N)CO)C(O)C(O)C4O)O[C@@H]3[C@H]2O)C1O (stereo partly specified) | -7%
Cc1[nH]c2ccccc2c1C(c1ccccn1)N1CCC(C(N)=O)CC1 (stereo unspecified) | 2%
Cc1ccc2occ(C(c3nnnn3Cc3ccccc3)N3CCOCC3)c(=O)c2c1 (stereo unspecified) | -3%
CCCCOc1nc2ccccc2nc1C(C#N)S(=O)(=O)c1ccccc1 (stereo unspecified) | 4%
Cc1ccc(C(=O)COC(=O)CCc2nc3ccccc3[nH]c2=O)cc1C | ?
O=C(O)c1cccc(Cn2cc(Cl)cn2)c1 | 1%
Cc1cc2nc(C(F)(F)F)[nH]c(=O)n2n1 | 1%
COC(=O)c1oc2ccc(Cl)cc2c1NC(C)=O | -18%
COc1ccc(-c2nnc(SCC(=O)c3cccs3)o2)c(OC)c1 | -1%
CCOc1ccccc1NC(=O)Cn1nnc(C(=O)Nc2ccccc2Cl)c1N | -8%
COc1ccc(-c2nc(C#N)c(NC(C)C)o2)cc1 | 25µM*
CCCCCCn1c(SCC(=O)Nc2cc(C)on2)nc2ccccc2c1=O | -20%
CCOc1cccc(-c2nnc3n2N=C(c2cc(OC)ccc2OC)CS3)c1 | -8%
O=C(c1nc(-c2ccccc2)n(-c2ccccc2)n1)N1CCN(S(=O)(=O)c2ccccc2)CC1 | -1%
COc1ccccc1OCCNC(=O)c1cccs1 | 7%
CCOC(=O)N1CCN(S(=O)(=O)c2ccc(C(=O)Nc3nc4c(s3)CC(C)CC4)cc2)CC1 (stereo unspecified) | ?
O=C(Nc1cnc2ccccc2c1)c1ccncc1 | -4%
O=C(c1ccco1)N1CCN(C(=O)C2CCN(S(=O)(=O)c3cccc4nsnc34)CC2)CC1 | -4%
COc1ccc(CCNC(=O)CSc2nnc(-c3ccccc3)o2)cc1OC | -2%
CC1CCN(c2ccc(NC(=O)c3cccnc3)cc2)CC1 | 0%
CC1CCN(C(c2cc3cc4c(cc3[nH]c2=O)OCO4)c2nnnn2CC2CCCO2)CC1 (stereo unspecified) | 200%[activator]

(listing goes on)
compound | HSD17B inhib
CN1CCN(c2ncnc3ccc(-c4ccc5c(c4)OCO5)cc23)CC1 | -6%
c1cncc(-c2cc(-c3cc(-c4cccnc4)n[nH]3)[nH]n2)c1 | -3%[11.4 µM]
CCOc1ccc(NC(=O)CSc2nc3ccccc3c(=O)n2CCNC(C)=O)cc1 | 8%
COc1ccc(-c2nn(CC(=O)N(C)C)c(=O)c3ccccc23)cc1 | -26%
O=C(Nc1ccccc1C(=O)N1CCOCC1)C1CCCO1 (stereo unspecified) | 1%
CCOC(=O)c1ccc(OCc2nc(-c3cccs3)no2)cc1 | -1%
Cn1c(=O)[nH]c(=O)c2c1nc(N1CCCCC1)n2CCOc1ccccc1 | -2%
CCCc1cc(C(=O)N2CCN(S(=O)(=O)c3ccc(OC)c(OC)c3)CC2)cs1 | -3%
OC[C@@H](O)COc1cccc2ccccc12 | -19%
COc1ccc(C(=O)N2CCC3(CCCN(c4cccc(-c5ccccc5)c4)C3)CC2)cc1 | -10%
CC(=O)SCCC(=O)N1C(C)CCCC1C(=O)O (stereo unspecified) | 2%
CC1CCCC(C)N1S(=O)(=O)c1ccc(NC(=O)CNCC2CCCO2)cc1 (stereo unspecified) | 7%
O=C(NCc1ccccc1)c1cc(S(=O)(=O)N2CCOCC2)ccc1F | ?
COc1ccc(CN2CCC(CNC(=O)NC3CCCCC3)CC2)cc1 | 9%
O=C(Nc1ccc2c(c1)OCO2)c1cccc2c1C(=O)N(Cc1cccnc1)C2 | -1%
COc1ccc(Oc2ncc3nc(C)c(=O)n(-c4ccc(OC)cc4)c3n2)cc1 | ?
Cc1ncoc1C(=O)Nc1ccccc1-c1ccccc1 | -5%
Cc1ccc(S(=O)(=O)c2ccc(Cl)cc2)cc1S(=O)(=O)N1CCOCC1 | 5%
COc1cc(OC)c(CN2CCN(c3ccc(F)cc3)CC2)cc1Br | -4%
NC(=O)CSc1nc2ccccc2n1Cc1ccccc1F | 2%
N=c1n(CCN2CCOCC2)c2ccccc2n1CC(O)COc1ccccc1 (stereo unspecified) | -1%
CCN1C(=O)[C@@H]2[C@H](C1=O)[C@@H]1C[C@H]3C(=O)N(CC)C(=O)[C@H]3[C@@H]3C1=C(C(=O)N1C(=O)O/C(=N\CC4CC4)[C@]31C)[C@@H]2C | 1%
Cc1cc2ccccc2n1CCNC(=O)C1CCCC1 | ?
COc1ccc(OCC(=O)Nc2ccc(NC(=O)c3ccco3)cc2)cc1 | -7%
Cc1ccccc1C#N | -2%
C=CC(C)n1c(Br)nc2c1c(=O)[nH]c(=O)n2C (stereo unspecified) | 14%
CCN1C(=O)/C(=C\N2CCCc3ccccc32)SC1=S | -4%
O=C(Nc1ccc2c(c1)OCO2)C1CCCN(S(=O)(=O)Cc2ccccc2)C1 (stereo unspecified) | 9%
NC(=O)c1c(N)sc(=S)n1-c1ccccc1 | -2%
COc1ccc(-c2nnc3sc(CN4C(=O)c5ccccc5C4=O)nn23)cc1 | -17%
COc1ccc(CCN(CC(=O)NC2CCCC2)C(=O)CCC(=O)Nc2cc(C)on2)cc1OC | 10%
O=C(COc1ccc2ccccc2c1)N1CCCC1 | 5%
Cc1cccc(-n2ncc3c(NCCCn4ccnc4)ncnc32)c1 | 25µM*
O=S(=O)(NC1=NCCC1)c1cccs1 | 3%
O=[N+]([O-])/C=C\c1cc2ccccc2[nH]1 | -1%[11.4 µM]
CCS(=O)(=O)n1nc(-c2ccccc2)nc1N | 23%
Cc1ccc(NC(=O)CSc2nnc(CSc3nc(C)cc(C)n3)n2Cc2ccco2)c(C)c1 | 0%

Compound activity (PubChem BioAssay)
